Source: PubChem BioAssay (National Center for Advancing Translational Sciences (NCATS))
MARV entry inh = qHTS for inhibitors of binding or entry into cells for Marburg Virus; Marburg virus pseudotyped entry inhibition, cell reporter; control for the full effect not named in the record; about a third of the inactives were read at about 46 µM; Potency, µM (doses to about 37.8 µM), for the others: top-dose activity change, negative = inhibition, hits mostly inhibitors; 300,000 tested, 1.8% active; active = well fitted inhibition curve with a large enough effect; inconclusive = small, poorly fitted or top-dose-only effect, or effect the other way; inactive = flat fitted curve, though single readings scatter; tested in HEK293 cells; about a fifth of its hits are not listed in these tables; further: on the % scale 0 is the no-effect control and ±100 the full control effect; luciferase read-out
Cruzain inh noDet = qHTS Assay for Promiscuous and Specific Inhibitors of Cruzain (without detergent). Cruzipain (Trypanosoma cruzi), P25779. purified cruzain, Z-FR-AMC fluorescence, no detergent. Potency, µM, for the others: max response, negative = inhibition, usual class: inhibitors. 200,000 tested, 2.3% active. AID 1476, 2009; active means well fitted curve in the direction sought with a large enough effect; inconclusive means small, poorly fitted or top-dose-only effect, or another doubt; inactive means no such curve, though single readings can be large; an effect the other way counts as inactive or inconclusive;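 further: plate controls were enzyme without inhibitor for no effect and buffer without enzyme for full effect; nearly all actives have a fitted effect of over 40% in size; top concentration of the series not given in the record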
Target sequence (P25779 123-467 limits assumed): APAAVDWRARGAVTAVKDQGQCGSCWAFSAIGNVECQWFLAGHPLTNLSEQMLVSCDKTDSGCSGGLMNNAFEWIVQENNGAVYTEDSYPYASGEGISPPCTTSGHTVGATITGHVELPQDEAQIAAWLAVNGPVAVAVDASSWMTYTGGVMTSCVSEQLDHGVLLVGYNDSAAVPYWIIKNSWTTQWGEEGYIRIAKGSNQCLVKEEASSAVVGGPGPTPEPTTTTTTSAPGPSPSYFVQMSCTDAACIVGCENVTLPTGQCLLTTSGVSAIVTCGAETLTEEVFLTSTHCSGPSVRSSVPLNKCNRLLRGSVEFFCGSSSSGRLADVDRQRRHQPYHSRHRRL
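Purified cruzain at 1.5 nM, pre-incubated 15 min with compound at room temperature in 100 mM sodium acetate pH 5.5, 5 mM DTT, 0.00005% Triton X-100. Reaction started with 2 uM Z-FR-AMC; AMC fluorescence increase over 60 s gives rate.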
RE007 growth inh = qHTS Assay for Inhibitors of the HIV-1 protein Vpr; S. pombe RE007 Vpr strain, BacTiter-Glo ATP luminescence, 24 h; control for the full effect not named in the record; Potency, µM (titrated, usually from 92.2 µM), without a hit: top-dose activity change, negative = less growth; 360,000 tested, 0.21% active; active = well fitted falling curve with a large enough effect; inconclusive = small, poorly fitted or top-dose-only effect; inactive = no such curve, though single readings can be large or run the other way;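 further: on the % scale 0 is the no-effect control and ±100 the full control effect; nearly all actives have a fitted effect of over 50% in size; the assay follows cell death caused by Vpr and the record does not say whether a fall means rescue or toxicity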
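Fission yeast strain RE007, carrying one chromosomally integrated HIV-1 vpr copy, was seeded at OD 0.01 in PMG+AL medium with 23 nL pinned compound. After 24 h at 30 °C and 99% humidity, viability was read by BacTiter-Glo luminescence.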
NS1 inh = qHTS Assay for Inhibitors of Influenza NS1 Protein Function | S. cerevisiae slowed by influenza A NS1, growth recovery by OD600 | Potency, µM (titrated, usually from 46.1 µM), inactives show top-dose activity, positive = more growth | 270,000 tested, 0.4% active | AID 2326, 2010; further: actives are rising curves; nearly all actives have a fitted effect of over 50% in size
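Read-out: OD600 growth recovery of NS1-expressing budding yeast. Cells grown overnight at 30C in -URA glucose medium, washed, resuspended and diluted 1:100 in 2% galactose assay medium, pH 6.0. Same strain lacking NS1 served as positive control.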
SARS PLpro yeast = qHTS of Yeast-based Assay for SARS-CoV PLP; 330,000 tested, 0.19% active; S. cerevisiae expressing SARS-CoV PLpro, growth rescue; control for the full effect not named in the record; Potency, µM (series often up to 32.9 µM), for inactives: top-dose activity, positive = growth rescue; further: 0% is about no effect; nearly all actives have a fitted effect of over 55% in size; growth read by luminescence after 48 h
LASV entry inh = qHTS for Inhibitors of binding or entry into cells for Lassa Virus; Lassa virus pseudotype entry inhibition, cell reporter; control for the full effect not named in the record; Potency, µM (top dose mostly 37.9 µM), inactives show at the highest dose activity change, negative = inhibition, usual class: inhibitors; 300,000 tested, 1.2% active; AID 540256, 2011; active means well fitted inhibition curve with a large enough effect; inconclusive means small, poorly fitted or top-dose-only effect, or effect the other way; inactive means flat fitted curve, though single readings scatter; tested in HEK293 cells; further: on the % scale 0 is the no-effect control and ±100 the full control effect; nearly all actives have a fitted effect of over 50% in size; luciferase read-out
Cruzain Triton = qHTS Assay for Promiscuous and Specific Inhibitors of Cruzain (with detergent); Cruzipain (Trypanosoma cruzi), P25779; purified cruzain, Z-FR-AMC fluorescence, 0.01% Triton; Potency, µM, without a hit: max response, negative = inhibition, usual class: inhibitors; 200,000 tested, 0.43% active; AID 1478, 2009; active means well fitted curve in the direction sought with a large enough effect; inconclusive means small, poorly fitted or top-dose-only effect, or another doubt; inactive means no such curve, though single readings can be large; an effect the other way counts as inactive or inconclusive;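 further: plate controls were neutral wells for no effect and buffer without enzyme for full effect; nearly all actives have a fitted effect of over 40% in size; top concentration of the series not given in the record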
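15 min RT preincubation of 1.5 nM cruzain with compound, then 2 uM Z-FR-AMC added; kinetic AMC fluorescence, 60 s delta. Triton X-100 0.01%, pH 5.5.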
StopGo reporter = High Throughput Screening for Foot and Mouth Disease Virus Antivirals; human cells with a luciferase reporter of 2A StopGo recoding; control for the full effect not named in the record; Potency, µM (series often up to 57.9 µM), for the others: at the top dose signal change, negative = less light; 410,000 tested, 1.2% active; active = well fitted falling curve with a large enough effect; inconclusive = small, poorly fitted or top-dose-only effect; inactive = no such curve, though single readings can be large or run the other way; tested in HEK293T cells; further: on the % scale 0 is the no-effect control and ±100 the full control effect; nearly all actives have a fitted effect of over 45% in size; luciferase light after 4 h
Active calls of the source: *; ? = inconclusive; · = no result given; & = joins results of further samples; [ ] = remark or other dose. Unless noted, the call rests on the fitted dose curve; in most records, active means well fitted rising curve with a large enough effect; inconclusive means small, poorly fitted or top-dose-only effect; inactive means no such curve, though single readings can be large or run the other way. Potency means the concentration at half of the fitted maximal effect. Hits appear at their usual frequency, and some 4.7% of all compounds hit somewhere here.

SMILES | MARV entry inh | Cruzain inh noDet | RE007 growth inh | NS1 inh | SARS PLpro yeast | LASV entry inh | Cruzain Triton | StopGo reporter
O=C(COC(=O)c1ccccc1O)NC(c1ccccc1)c1ccccc1 | 3%[46.1 µM] | · | 11% | · | -1% | 4%[46.1 µM] | · | 7%
O=S(=O)(Nc1cccnc1Cl)c1ccc2c(c1)OCCO2 | 3% | -8% | -5% | -12% | 2% | ? | -3.0% | 6%
CCOc1ccccc1C1CC(=O)Oc2c1c(=O)n(C)c1ccccc21 (centres undefined) | ? | 17% | · | · | · | 0%[46.1 µM] | 0.4% | -17%
C/C=C(\C)C(=O)N[C@@H](c1ccccc1)[C@@H](O)C(=O)O[C@H]1C[C@@]2(O)[C@@H](OC(=O)c3ccccc3)C3[C@](C)(C(=O)[C@H](O)C(=C1C)C2(C)C)[C@@H](O)C[C@H]1OC[C@@]31OC(C)=O (some centres undefined) | · | · | -5% | -33% | ? | · | · | -19%
Cc1nnc(NC(=O)CSc2nnc(-c3ccc(S(=O)(=O)N4CCCC4)cc3)n2C)s1 | ? | -4% | 15% | 0% | 11% | 4% | 0.6% | 8%
CCN(CC)C(=O)CSc1nnc(-c2ccc(S(=O)(=O)N3CCCC3)cc2)o1 | 11% | -2% | 1% | -3% | 0% | 5% | 1.6% | -21%
COc1cc(C(=O)NCC(c2ccc(Cl)cc2)N2CCOCC2)cc(OC)c1OC (centres undefined) | -3%[46.1 µM] | 10% | · | · | · | 15%[46.1 µM] | -1.5% | -16%
COc1ccc(/C=N/n2c(C)nc3sc(C)c(C)c3c2=O)cc1 | ? | · | -5% | 3% | 1% | 23% | · | 4%
O=C(Nc1ccc(F)cc1F)c1ccc2c(=O)n3c(nc2c1)CCCCC3 | ? | -3% | · | · | · | ? | -5.3% | 20%
CCCCc1nc2ccccc2n2c(-c3ccc(C)cc3)c3c(=O)n(C)c(=O)n(C)c3c12 | -2%[46.1 µM] | 2% | · | · | · | ? | -0.8% | -4%
CN(C(=O)CCc1nc(-c2ccccc2F)no1)c1ccc(Cl)cc1 | 0%[46.1 µM] | 8% | · | · | · | -2%[46.1 µM] | -4.2% | -22%
CCOC(=O)c1c(S(=O)(=O)N2CCN(c3cccc(C(F)(F)F)c3)CC2)c(C)n(C)c1C | · | ? | · | · | · | 5%[46.1 µM] | -1.1% | 0%
CCN(CC)c1ccc(S(=O)(=O)N2CCOCC2)cc1NC(=O)CSc1nnc(N)s1 | -2% | · | 25% | · | -3% | ? | · | -14%
CCCc1nc(N)sc1C(=O)OCC | -2% | -2% | 0% | -6% | -30% | -1% | 0.3% | -16%
Cc1cn2c(=O)cc(COc3cccc(NC(=O)c4ccccc4C)c3)nc2s1 | -1%[46.1 µM] | -8% | · | · | · | -1%[46.1 µM] | -1.0% | -13%
C=CCSC1=C(C#N)C(c2ccccc2OCC)C(C#N)C(=O)N1 (centres undefined) | ? | -3% | -3% | 3% | -7% | -29% | -0.1% | ·
Cc1nnc(SCC(=O)N(C)CC(=O)Nc2ccc(F)cc2)n1Cc1ccccc1 | ? | · | -16% | · | 0% | 6%[46.1 µM] | · | 2%
Nc1c(C(=O)c2ccc(F)cc2)oc2ccccc12 | 17% | -11% | 2% | -12% | -1% | 3% | -7.2% | 0%
CCOC(=O)c1cc(-c2ccccc2)sc1NC(=O)C(C)(C)C | -7% | -4% | 4% | -13% | 9% | 21% | 0.5% | -20%
CCOC(=O)C1CCN(C(c2ccccc2)c2c(O)cc(C)n(Cc3ccco3)c2=O)CC1 (centres undefined) | · | ? | · | · | · | -2%[46.1 µM] | 0.3% | -24%
CC(C)CC(=O)Nc1ccc(C(=O)COC(=O)C2CCC2)cc1 | 17%[46.1 µM] | · | 9% | 12% | 3% | 11%[46.1 µM] | · | 7%
CCN1C(Nc2ccccc2)=NC[C@@H]1CC(C)C | · | · | -5% | -9% | 8% | · | · | -1%
O=C(Cn1nc(-c2ccc(Cl)cc2)c2ccccc2c1=O)Nc1cccc(Br)c1 | 6%[46.1 µM] | -8% | · | · | · | -2%[46.1 µM] | -3.5% | -16%
CSc1ncc(C(=O)Nc2cc(C)ccc2C)c(C)n1 | · | · | -14% | 6% | 1% | · | · | -2%
CC1CCCCN1Cc1c(O)ccc2c(=O)c(-c3ccc(Cl)cc3Cl)coc12 (centres undefined) | · | · | 7% | 0% | -10% | · | · | -19%
Cc1ccc(NC(=O)Cn2c(O)c(N=NC(N)=O)c3ccccc32)cc1 | ? | · | -12% | -70% | -3% | ? | · | 1%
O=C1CCSC2(C(=O)N(Cc3ccc(F)cc3)c3ccccc32)N1c1ccc(F)c(F)c1 (centres undefined) | · | -5% | · | · | · | 15%[46.1 µM] | -8.8% | -18%
CCc1ccc(NC(=O)CSc2nnc(CC)c(CC)n2)cc1 | 7%&7% | -17%&-8% | 13% | -15% | -4% | -2%[46.1 µM] | -4.8%&-2.6% | -12%&-20%
CCOC(=O)c1oc2ccc(S(=O)(=O)n3nc(-c4cc(OCC)c(OCC)c(OCC)c4)cc3N)cc2c1C | ? | -6% | · | · | · | -5%[46.1 µM] | -1.2% | -4%
COc1ccc(C)cc1S(=O)(=O)N1CCCCC1 | 3%[46.1 µM] | -6% | 3% | -2% | -10% | 7% | -0.1% | 18%
CSc1cccc(NC(=O)C2CCCN2S(=O)(=O)c2ccc3c(c2)CCC(=O)N3)c1 (centres undefined) | 5% | 14% | 5% | 2% | -4% | 37%[14.3 µM] | 8.1% | -7%
OCC1CCCCN1C(=S)Nc1cccc(Cl)c1 (centres undefined) | 10%[46.1 µM] | · | 5% | 0% | 0% | 24% | · | 23%
Cc1cc(C)c(C(=O)COC(=O)CNC(=O)c2ccccc2C)c(C)c1 | ? | · | 30% | · | 1% | 13% | · | 0%
CC(C(=O)NN)n1nnc(N2CCOCC2)n1 (centres undefined) | · | · | 1% | -6% | -1% | · | · | -12%
O=C(NCCc1ccccc1)c1ccc(Cn2c(=O)c3cccn3c3cccnc32)cc1 | · | 9% | · | · | · | -19%[46.1 µM] | -0.3% | 21%
COc1ccc(-c2cc3c(=O)n(CC(=O)NCc4ccc(C)cc4)ncn3n2)cc1 | · | · | 2% | -6% | 9% | · | · | 0%
Cc1ccc(CN(C(=O)COc2ccccc2[N+](=O)[O-])c2ccccn2)o1 | ? | -1% | · | · | · | -18%[46.1 µM] | -3.3% | 22%
CSc1ccc(/C=C/C(=O)OCC(=O)c2ccc[nH]2)cc1 | ? | · | -5% | · | 2% | 17% | · | 27%
CCOc1ccc(N=c2cc(-c3ccc(OC)cc3)oc3ccccc23)cc1 | ? | 2% | -22% | 2% | -59% | ? | -12% | ?
CCN1CCN(C(c2ccc(F)cc2)c2c(O)cc(C)n(CCOC)c2=O)CC1 (centres undefined) | · | 11% | · | · | · | -19%[46.1 µM] | 2.1% | -15%
Cc1ccc(NC(NC(=O)c2ccccc2[N+](=O)[O-])C(Cl)(Cl)Cl)cc1 (centres undefined) | -16% | 4% | -9% | -11% | 4% | -17% | -5.8% | ?
COc1ccc(S(=O)(=O)N(C)CC(=O)Nc2ccc3c(c2)OCCO3)cc1 | ? | · | 8% | · | 0% | 14% | · | -7%
Fc1ccc(NC(=S)Nc2ccc(F)c(Cl)c2)cc1Cl | 0%[46.1 µM] | -13% | -6% | -190% | -44% | -17% | -14% | ?
O=C(COc1cccc(F)c1)Nc1ccc2[nH]c(=O)[nH]c2c1 | · | · | 15% | ? | 0% | · | · | -13%
CC12CCC(=O)N1C(C(=O)Nc1cc(S(=O)(=O)N3CCCCCC3)ccc1OCC(F)(F)F)CS2 (centres undefined) | -17%[46.1 µM] | · | -1% | 15% | 5% | ? | · | -8%
O=S(=O)(Nc1ccc2c(c1)OCO2)c1ccccc1 | 7% | 1% | 6% | 3% | 9% | 22% | 4.0% | 0%
CCOC(=O)c1cc(CC)sc1NC(=O)CCC(=O)O | -17% | -6% | -8% | -30% | -3% | 6% | -3.0% | 0%
CN(CCCC(=O)NCCc1ccccc1)S(=O)(=O)c1ccc([N+](=O)[O-])cc1 | -16%[46.1 µM] | · | -22% | -18% | 1% | -25%[46.1 µM] | · | -18%
CCN(CC)S(=O)(=O)c1cccc(C(=O)NC(C(=O)NNC(=O)c2ccccc2F)C(C)C)c1 (centres undefined) | 11% | · | 31% | · | · | -8% | · | -5%
COc1cccc(NC(=O)CN(C)C(=O)c2cccc(S(=O)(=O)N3c4ccccc4CC3C)c2)c1 (centres undefined) | ? | · | -2% | · | 0% | ? | · | 10%
CC1(C)C2([N+](=O)[O-])CN3CC1([N+](=O)[O-])CN(C2)C3c1ccc(O)c(O)c1 (centres undefined) | -14%[46.1 µM] | · | 8% | 5% | -1% | 9% | · | -10%
Cc1ccc2nc(N3CCN(C(=O)C4COc5ccccc5O4)CC3)sc2c1 (centres undefined) | · | 6% | · | · | · | -19%[46.1 µM] | -6.6% | 16%
CCOC(=O)c1ccc(NC(=O)c2nn(C)cc2Br)cc1 | -6% | 5% | 0% | -12% | 1% | -4% | -0.6% | 17%
COc1ccc(S(=O)(=O)N2CC(C(=O)O)Oc3ccccc32)cc1 (centres undefined) | -8%[46.1 µM] | · | 10% | 5% | 1% | ? | · | -7%
COc1ccc(Cc2nc(-c3ccccn3)no2)cc1 | ? | -7% | 11% | -8% | ? | -2% | 1.2% | 49%[activator]
COc1ccccc1N1CCN(/N=C\c2cccnc2)CC1 | ? | · | -16% | -7% | -7% | 27%[46.1 µM] | · | 3%
CCN(CC(=O)Nc1ccc(NC(C)=O)cc1)C(=O)Cc1cccc2ccccc12 | 6% | · | -13% | 16% | -6% | ? | · | -18%
